# Compound activity (PubChem BioAssay)
# Rce1 inhib = yeast Rce1p protease inhibitors, primary screen, biochemical, fluorescence, cell-free homogeneous; CAAX prenyl protease 2 (Saccharomyces cerevisiae (strain ATCC 204508 / S288c)), Q03530; yeast membranes, quenched prenylated peptide cleavage fluorescence; calls only; hit rate 0.27% among 290,000;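 active means fall in fluorescence gain of 50% or more versus controls, with final raw signal at or below 3038400; inconclusive means same 50% fall but final raw signal above 3038400; inactive means fall in fluorescence gain under 50%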;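 further: plate controls were neutral control wells for no effect and wells lacking membranes for full effect; tested at 10 µM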
# Target sequence (Q03530 whole entry, looked up): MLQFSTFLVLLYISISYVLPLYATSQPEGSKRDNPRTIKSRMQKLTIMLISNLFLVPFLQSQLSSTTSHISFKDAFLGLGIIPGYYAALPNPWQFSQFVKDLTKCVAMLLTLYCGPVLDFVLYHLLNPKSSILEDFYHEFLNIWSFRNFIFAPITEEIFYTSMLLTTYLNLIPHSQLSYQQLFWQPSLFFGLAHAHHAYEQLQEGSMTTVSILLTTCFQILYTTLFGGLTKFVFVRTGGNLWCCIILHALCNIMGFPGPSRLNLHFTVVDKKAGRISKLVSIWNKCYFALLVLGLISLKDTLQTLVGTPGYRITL
# PABP FP inh = PABP poly(A) RNA binding inhibitors, primary screen, biochemical, fluorescence polarization, uHTS; inhibition, % at 35 µM; hit rate 1% among 290,000; AID 2014, 2009;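 active means 50% or more with normal probe brightness, or confirmed in later tests; inconclusive means above 50% with abnormal brightness, or retests that disagree; inactive means below 50% or failed in later tests; about a fifth of its hits are not listed in these tables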;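 further: calls also rest on retests at 20 µM and on dose response follow-up; controls were probe without protein and protein plus probe with vehicle; some compounds called inactive have numbers as strong as hits; many hits fall short of the cut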
# Target sequence (P11940 whole entry, looked up): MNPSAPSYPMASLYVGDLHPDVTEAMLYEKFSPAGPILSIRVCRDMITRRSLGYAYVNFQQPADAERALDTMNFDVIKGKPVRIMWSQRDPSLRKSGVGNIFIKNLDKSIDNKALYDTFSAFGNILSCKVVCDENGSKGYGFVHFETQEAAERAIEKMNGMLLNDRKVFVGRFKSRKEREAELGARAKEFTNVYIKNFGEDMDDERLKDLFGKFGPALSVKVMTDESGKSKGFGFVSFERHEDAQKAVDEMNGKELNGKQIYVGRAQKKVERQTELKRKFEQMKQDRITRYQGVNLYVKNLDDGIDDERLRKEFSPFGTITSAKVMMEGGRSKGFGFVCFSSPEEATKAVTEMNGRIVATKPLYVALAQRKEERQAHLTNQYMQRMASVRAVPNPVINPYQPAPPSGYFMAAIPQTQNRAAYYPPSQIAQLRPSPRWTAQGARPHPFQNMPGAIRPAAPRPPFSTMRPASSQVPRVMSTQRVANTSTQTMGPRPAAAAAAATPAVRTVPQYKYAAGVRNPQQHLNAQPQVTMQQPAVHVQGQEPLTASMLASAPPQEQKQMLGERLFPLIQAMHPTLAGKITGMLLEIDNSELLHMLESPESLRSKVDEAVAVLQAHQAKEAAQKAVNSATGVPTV
# Yeast UUG start = modulators of yeast start codon fidelity, primary screen, whole organism, S. cerevisiae, single point, plate reader | S. cerevisiae UUG-firefly luciferase reporter, luminescence/redox ratio | hit rate 0.13% among 350,000 | activity score, % at 18.7 µM;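 active means replicate mean at a twofold rise or more, about +100% in these data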;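 further: firefly luciferase made from a UUG start codon reports start codon fidelity; reporter light over untreated wells divided by growth signal over untreated wells; some hits fall short of that in this replicate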
# CSC inhib = cancer stem cell viability inhibitors, primary screen, luminescence; cancer stem cell-like cells viability; inhibition, % at 7.5 µM; hit rate 1.1% among 300,000; AID 2717, 2010;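 active means mean at 75% or more and at least half the replicates too; inconclusive means mean and replicates disagree; tested in HMLE shEcad cells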;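 further: 0% = median of negative and 100% = median of positive control wells; the first replicate is given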
# MT1-MMP act inh = blockers of MT1-MMP proenzyme processing, primary screen, HT1080 RFP-PRO-GFP cells, GFP/RFP fluorescence | Matrix metalloproteinase-14 (Homo sapiens), P50281 | GFP/RFP ratio fluorescence, overnight; percent of plate control window, DMSO zero | GFP/RFP ratio change, % at 20 µM | hit rate 0.061% among 360,000;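 active means GFP/RFP ratio change of at least 30% with cell ATP level not reduced by more than half and red fluorescence within 50% of control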; further: strong numbers were not always called active
#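 system = RFP-PRO-GFP reporter HT1080 cells | dosing = 20 µM single dose, 1% DMSO | timing = overnight cell settling, then overnight compound exposure, 37 °C, 5% CO2 | read-out basis = GFP/RFP fluorescence ratio | controls = DMSO and RFP-L50D-GFP cell wells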
# HIV Env fusion = inhibitors of HIV-1 Env-driven cell-cell fusion, primary screen, HeLa-JRFL effector, CEM21 target cells, luciferase | hit rate 1.1% among 360,000 | AID 651610, 2012 | inhibition, % at 12.3 µM;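 active means mean replicate inhibition score of at least 50 and every replicate individually at or above 50; inconclusive means only one of the two criteria met; inactive means mean below 50 and not all replicates reaching 50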;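 further: 0% = plate neutral controls and 100% = maraviroc near 300 nM; one replicate is shown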
# eIF4H inh = human eIF4H binding inhibitors, primary screen, translation initiation inhibitor project, biochemical, uHTS, fluorescence polarization; Eukaryotic translation initiation factor 4H (Homo sapiens), Q15056; eIF4H fluorescence polarization binding assay; inhibition, % at 35 µM; hit rate 0.94% among 290,000; AID 2012, 2009;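 active means 50% or more with normal probe brightness, or confirmed in later tests; inconclusive means above 50% with abnormal brightness, or retests that disagree; inactive means below 50% or failed in later tests; about a fifth of its hits are not listed in these tables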;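 further: calls also rest on retests at 20 µM and on dose response follow-up; 0% = protein and probe with vehicle and 100% = probe without protein; strong numbers were not always called active; many hits fall short of the cut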
# MT1-MMP act inh RFP = recorded beside MT1-MMP act inh, whose call it bears; RFP signal change, %; measured here: RFP expression control read;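 0 = vehicle wells; hits needed this value within 50% of zero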
# Starred values were filed as active, the others as inactive; i = inactive; ? = inconclusive; · = not tested or not shown. An excerpt; the hit share may differ from the screen's.
SMILES,Rce1 inhib,PABP FP inh,Yeast UUG start,CSC inhib,MT1-MMP act inh,MT1-MMP act inh RFP,HIV Env fusion,eIF4H inh
CCOC(=O)COc1ccc(Br)cc1/C=C\c1[nH]c(=O)[nH]c(=O)c1[N+](=O)[O-],i,-13.1,·,6.1,-11.7,-14.1,16.4,-1.6
CCOc1ccc(C(=O)COc2ccc(NC(C)=O)cc2)cc1,i,0.8,-13.2,23.6,0.7,-1.4,·,-5.2
COc1ccc(-c2cc3nc(C)c(CCC(=O)NCc4ccc(F)cc4)c(C)n3n2)c(OC)c1,i,1.8,·,-10.8,-7.8,-8.8,16.3,6.5
COc1ccc(-c2sc3cc4c(cc3c2C#Cc2cncn2C)OCO4)cc1,·,·,-15.0,67.1,-1.5,-4.8,-12.2,·
CCCCc1ccc(S(=O)(=O)NC(=O)C2(C)CCN2C(=O)C/C=C/c2ccccc2)cc1 (stereo unspecified),·,·,-31.7,·,1.7,9.2,-3.8,·
C/C(CC(=O)Nc1ccc(Cl)c(C(F)(F)F)c1)=N\NC(N)=S,i,4.2,·,0.5,-4.3,-4.2,-22.6,2.5
COc1ccccc1CNC(=O)N1CCN(S(=O)(=O)c2ccc(Cl)cc2)CC1,i,-3.8,-10.9,-8.5,5.2,3.3,-18.0,1.3
CN(C(=O)COc1ccc([N+](=O)[O-])cc1)C1CCS(=O)(=O)C1 (stereo unspecified),i,-2.3,·,-0.6,-0.5,0.3,22.7,-7.5
CCCSc1nc(N2CCOCC2)c2c(c1C#N)CC(C)(C)SC2,i,-9.3,-18.6,21.0,-1.7,-3.6,·,-7.6
COc1ccc(CC(=O)NNC(=O)CCC(=O)Nc2cc(C)ccc2C)cc1,i,3.2,·,-6.0,2.4,2.0,12.6,6.3
Cc1ccc(NCC(=O)N/N=C/c2cccn2C)cc1,i,3.9,-15.0,-8.6,0.3,0.0,4.8,1.0
CCn1cc(C(=O)NCc2ccc(C)cc2)c(=O)c2cc(S(=O)(=O)N(C)C)ccc21,i,8.6,-9.8,1.1,3.2,2.3,-25.2,5.2
CCC(CC)N1CCN(S(=O)(=O)c2ccc(OC)cc2)CC1,i,8.5,6.6,-11.8,1.2,2.5,-55.3,10.8
O=C(NCCN1CCN(c2ccccc2)CC1)Nc1ccccc1Br,i,-2.2,-10.8,6.3,4.0,-0.6,9.1,-9.7
Cc1ccc(NC(=O)C2CCN(S(=O)(=O)c3ccc(Cl)c(C(F)(F)F)c3)CC2)nc1,i,·,-12.1,-5.4,1.1,-15.3,-0.5,·
CCOc1ccc(-n2c(C)nc3cc(C(=O)NCc4ccc5c(c4)OCO5)ccc32)cc1,i,-2.0,-8.8,11.3,-1.3,1.3,3.6,-12.8
CCc1nc(NCc2ccccc2)c(C#N)c2c1CCCC2,i,1.4,-28.2,19.0,2.8,2.6,-0.8,-0.8
COc1cccc([C@@H]2CC=C(C(=O)O)[C@H](c3ccccc3F)N2S(=O)(=O)c2ccc(C)cc2)c1,·,·,9.9,-2.9,-2.9,2.5,-1.4,·
COCCOC(=O)c1c(C)nc(SCC(=O)Nc2ccc(C)cc2)c(C#N)c1-c1ccco1,·,-8.9,-4.6,-15.5,0.4,-2.3,·,4.8
Cc1onc(-c2ccccc2Cl)c1C(=O)NCc1nc(-c2ccc(C(F)(F)F)cc2)no1,i,6.1,·,24.2,4.1,-17.7,-1.6,-5.6
CCOc1cc(Br)ccc1S(=O)(=O)NCc1ccccc1,i,-1.7,-9.5,26.5,5.2,0.7,·,-8.5
CCOC(=O)C(C)n1cnc2c(nnn2Cc2ccc(C)cc2)c1=O (stereo unspecified),i,9.7,·,3.6,3.9,4.2,-3.9,-7.7
COc1ccc(Nc2nc(N)nc(CSc3nc(C)cc(C)n3)n2)cc1,i,1.8,·,-7.2,-0.6,-0.6,5.4,-3.3
O=S(=O)(NCC(c1ccco1)N1CCCCC1)c1cccc(C(F)(F)F)c1 (stereo unspecified),·,·,-13.8,-14.3,3.7,-2.0,37.5,·
O=C(CCC(=O)Nc1ccccc1)NNC(=O)c1ccccc1Cl,i,3.0,·,·,1.6,4.2,1.6,-6.3
SMILES,Rce1 inhib,PABP FP inh,Yeast UUG start,CSC inhib,MT1-MMP act inh,MT1-MMP act inh RFP,HIV Env fusion,eIF4H inh
Cc1nn(C)c(C)c1S(=O)(=O)NC1CCCC1,i,5.7,-8.3,2.0,5.4,9.4,·,2.3
CSc1ccccc1NC(=O)CN(C)C(=O)c1ccc2c(c1)OCCO2,i,-0.9,-16.2,3.7,1.9,4.0,16.2,-17.3
COCCNC(=O)C(NC(=O)C1CCCCC1)C(C)C (stereo unspecified),i,-3.8,·,-7.7,2.5,9.2,7.5,2.3
Cc1ccc(NC(=O)COC(=O)CNC(=O)c2ccc3ccccc3c2)c([N+](=O)[O-])c1,i,-8.9,·,-6.3,2.6,7.0,19.2,-0.8
O=C(O)c1ccc(NS(=O)(=O)c2cc(Cl)ccc2Cl)cc1,i,2.9,·,-2.0,·,·,·,-15.4
CC(=O)c1cccc(Oc2cc(NN3CCCCC3)c([N+](=O)[O-])cc2[N+](=O)[O-])c1,i,8.6,-15.2,35.1,0.0,-21.0,-3.1,0.2
Clc1cc(Cl)cc(C2=NCCC(c3ccccc3)O2)c1 (stereo unspecified),i,4.4,·,-7.3,·,·,·,13.1
Cc1ccc(-c2ncccc2OC(=O)C23CC4CC(CC(C4)C2)C3)cc1,i,1.5,0.5,1.4,0.5,1.0,-36.0,-10.8
Cc1ccc(-n2c(=O)c(C#N)cc3c(=O)n4ccccc4nc32)cc1C,i,13.0,-12.6,-1.6,15.9,-0.8,-13.5,15.5
CCOC(=O)N1CCN(C(=O)c2cn(C)c3ccc(S(=O)(=O)N(C)C4CCCCC4)cc3c2=O)CC1,i,9.6,-9.7,-13.6,-1.1,2.5,3.2,-7.3
Cc1cccc2c1CC(C)(C)N/C2=C\C(N)=O,i,-4.1,-3.2,-3.4,-2.2,1.6,-11.9,2.4
CS(=O)(=O)c1ccc(Nc2nc(C(N)COCc3ccccc3)cs2)cc1 (stereo unspecified),·,·,-12.0,·,0.5,-0.6,-7.2,·
COc1c(OC(C)=O)c(=O)n2c3ccccc3c3ccnc1c32,i,·,46.0,-2.2,-62.7,2.5,·,·
CCOC(=O)Cn1nc(C)n(-c2ccc(Cl)cc2)c1=O,i,-12.9,·,-9.6,1.9,3.3,8.6,-4.1
COc1ccc(CNC(=O)CC23CC4CC(CC(C4)C2)C3)cc1OC,i,-7.7,0.9,-5.3,0.5,-1.8,1.3,-6.5
CN(C(=O)C1CCN(S(=O)(=O)c2ccccc2[N+](=O)[O-])CC1)C1CCCCC1,·,·,-0.4,-10.8,4.0,-3.3,-10.2,·
Cc1ccc(-c2nc3ncccn3c2Nc2ccccc2C)o1,i,?,·,-5.4,-7.8,-1.9,1.9,12.8
Cc1cccc(C)c1NC(=O)C(c1ccc(Cl)cc1Cl)N1CCCCC1 (stereo unspecified),i,-12.6,-10.0,8.5,-18.9,-18.1,-19.4,-1.0
O=C(Nc1ccc2c(c1)OCCO2)C(c1ccnc2ccccc12)N1CCN(c2ccc(F)cc2)CC1 (stereo unspecified),·,·,-10.7,·,10.6,-11.9,-18.3,·
CC(C)(C)OC(=O)NCCCCCNC(=O)c1[nH]cnc1C(=O)Nc1ccccc1,·,·,-6.1,-8.0,9.3,-7.3,23.1,·
CCOc1ccc(NC(=O)CCC(=O)N/N=C/c2ccc([N+](=O)[O-])s2)cc1,i,-3.3,-14.1,-19.3,-0.8,-7.8,27.8,-3.6
Cc1nc(C(F)(F)F)ccc1C(=O)N1CCC1(C)C(=O)NS(=O)(=O)c1ccc2ccccc2c1 (stereo unspecified),·,·,0.3,·,-1.7,2.1,-5.0,·
O=C(Nc1cccc(S(=O)(=O)N2CCCCC2)c1)c1cc2ccccc2o1,·,·,-22.6,-17.4,-2.8,-6.7,3.9,·
Cc1cc(Br)ccc1SCC(=O)NCC(c1ccco1)N1CCCCC1 (stereo unspecified),i,·,-13.2,-4.7,1.7,-2.5,7.7,·
CCn1c(=O)n(CC)c2cc(N3CCCC3)c(NC(=O)c3ccccc3)cc21,i,3.5,-7.6,8.7,2.2,1.2,8.3,-6.4
SMILES,Rce1 inhib,PABP FP inh,Yeast UUG start,CSC inhib,MT1-MMP act inh,MT1-MMP act inh RFP,HIV Env fusion,eIF4H inh
CCOC(=O)C1CCCN(c2c(NCCN3CCCCC3C)c(=O)c2=O)C1 (stereo unspecified),i,-14.2,-3.2,3.3,2.7,4.5,25.2,-3.7
C=CCc1cccc([C@@H]2[C@@H](C)CC[C@H]3C(=O)N4[C@@H](c5cc(OC)c(OC)c(OC)c5)c5[nH]c6ccccc6c5C[C@H]4C(=O)N23)c1,i,9.9,·,17.2,·,·,·,-1.3
CCC1CCCCN1CCCNC(=O)Cn1ncc2c([nH]c3ccc(C)cc32)c1=O (stereo unspecified),i,3.0,-13.6,-8.9,·,·,·,-12.3
Cc1cccc(NC(=O)c2cc(-c3cc(C)ccc3O)n[nH]2)c1,i,4.4,-6.1,-5.1,14.1,3.5,-25.7,-6.9
O=C(c1nc(-c2ccccc2)n(-c2ccccc2)n1)N1CCN(S(=O)(=O)c2ccccc2)CC1,i,17.0,-5.8,·,-2.6,-6.1,37.7,7.4
O=C(O)C1CCC(NSc2ccccc2[N+](=O)[O-])CC1 (stereo unspecified),i,-8.4,·,3.5,-1.0,2.1,17.4,-4.7
COC(=O)C1=C(C)N(Cc2ccco2)C(=O)N[C@@H]1c1cccc(C(F)(F)F)c1,i,1.6,·,6.4,·,·,·,4.6
CCc1ccc(-c2cc(C(=O)NCCCn3ccnc3)c3ccccc3n2)s1,i,-4.4,·,5.8,·,·,·,30.9
CCCCOc1ccc(C(=O)N/C(=C/C=C/c2ccccc2)C(=O)NC)cc1,·,-11.8,·,-3.8,1.1,-0.8,8.8,-0.8
COc1cccc(-n2cc(-c3ccc(F)cc3)[nH]c2=S)c1,i,-1.7,-41.6,-10.1,-3.5,-2.4,-114.1,-7.9
CCOc1cc(NS(=O)(=O)c2ccc(OC)cc2)c(OCC)cc1NC(=O)c1ccco1,·,-12.9,-2.3,-3.6,4.6,-2.1,-41.1,2.4
COc1cc([N+](=O)[O-])ccc1NC(=O)C[n+]1cccc(C(C)=O)c1,i,0.2,-13.7,9.9,-4.0,0.8,-6.8,13.1
Cc1cccc(NC(=O)CSc2nc3c([nH]c4ccccc43)c(=O)n2C)c1,i,25.1,-18.3,32.1,-2.4,2.5,-42.8,-9.0
O=C(Nc1ccc(N2CCOCC2)c([N+](=O)[O-])c1)c1ccco1,i,-7.9,·,-8.1,-1.2,-2.8,16.5,0.1
CCOc1cccc(-c2nnc3n2N=C(c2cc(OC)ccc2OC)CS3)c1,i,-9.4,-5.6,56.4,-13.6,-5.2,-25.7,8.5

# In the list so far, these have two or more sulfur atoms:
SMILES,Rce1 inhib,PABP FP inh,Yeast UUG start,CSC inhib,MT1-MMP act inh,MT1-MMP act inh RFP,HIV Env fusion,eIF4H inh
CCCSc1nc(N2CCOCC2)c2c(c1C#N)CC(C)(C)SC2,i,-9.3,-18.6,21.0,-1.7,-3.6,·,-7.6
CS(=O)(=O)c1ccc(Nc2nc(C(N)COCc3ccccc3)cs2)cc1 (stereo unspecified),·,·,-12.0,·,0.5,-0.6,-7.2,·
